Rango dissoc inh – prevents RanGTP from dissociating the Rango-importin beta complex. O95149+P62826. Biochemical FRET Rango-importin beta, RanGTP-induced dissociation. Potency, µM (titrated, usually from 46.1 µM), without a hit: top-dose activity change, negative = inhibition. 340,000 compounds, 0.071% hits. AID 540253; active means falling FRET ratio curve, often poorly fitted, with flat reads before Ran was added; inconclusive means other falling curves, or compound fluorescence or quenching; inactive means flat or rising ratio curve;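 further: potency means the concentration at half of the fitted maximal effect; % of control where 0% means no effect; nearly all actives have a fitted effect of over 45% in size; -100% = wells without RanGTP and RCC1; the record marks most hits as doubtful in a second field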
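Rango (0.1 uM)–importin beta (0.25 uM) complex; RanGTP-RCC1 trigger; 45 min RT; CFP/YFP FRET read.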
GLA inh pH 4.5 – blocks human alpha-galactosidase A at pH 4.5; purified enzyme, 4-MU-alpha-Gal fluorescence, pH 4.5; AID 1467; activity change, negative = inhibition, % at 105 µM; P06280; 230,000 tested, under 10 active; inconclusive = small, poorly fitted or top-dose-only inhibition, or a rising curve; inactive = flat fitted curve, though single readings scatter; no compound was filed as active;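 further: 0% = full activity with enzyme and -100% = basal without enzyme; dose as in the result columns while the protocol names 77 µM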
Target sequence (P06280 whole entry, looked up): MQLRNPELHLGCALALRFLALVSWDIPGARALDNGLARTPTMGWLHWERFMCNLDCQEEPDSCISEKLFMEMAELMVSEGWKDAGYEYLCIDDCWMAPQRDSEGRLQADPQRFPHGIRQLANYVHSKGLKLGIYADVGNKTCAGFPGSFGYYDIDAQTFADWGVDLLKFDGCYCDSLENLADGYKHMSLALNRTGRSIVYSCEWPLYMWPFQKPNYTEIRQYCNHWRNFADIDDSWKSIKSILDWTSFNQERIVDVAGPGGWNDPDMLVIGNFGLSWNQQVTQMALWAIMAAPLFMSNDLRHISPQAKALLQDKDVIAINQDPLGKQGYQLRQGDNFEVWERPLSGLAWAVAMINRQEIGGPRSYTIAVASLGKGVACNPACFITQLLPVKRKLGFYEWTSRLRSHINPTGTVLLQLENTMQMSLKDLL
miR-21 FLuc – miR-21 reporter, rising signal. Potency, µM (doses to about 38.3 µM), for inactives: at the highest dose reporter change, positive = more light. 340,000 tested, under 10 active. AID 2288. HeLa miR-21 FLuc reporter, luciferase, 48 h; active = well fitted rising curve with a large enough effect; inconclusive = small, poorly fitted or top-dose-only effect; inactive = no such curve, though single readings can be large or run the other way;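 further: % of control where 0% means no effect; miR-21 action dims this reporter so a rising signal means less miR-21 action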
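Compounds were titrated across several concentrations (up to approximately 40 uM) and incubated 48 hours with HeLa miR-21-FLuc reporter cells (miR-21 target sequence downstream of FLuc, endogenous miR-21). Readout was firefly luciferase luminescence after lytic detection reagent.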
Rango complex inh – inhibitors of Rango-importin beta complex formation; Potency, µM (titrated, usually from 92.2 µM), for the others: at the top dose inhibition of complex formation; 340,000 compounds, 0.031% hits; AID 540263; Q14974; Rango CFP/YFP FRET sensor + importin beta, 45 min; active = rising FRET ratio curve, often small or poorly fitted; inconclusive = mostly compound fluorescence or quenching in the first reads; inactive = flat curves in all reads;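 further: potency means the concentration at half of the fitted maximal effect; 0% = DMSO wells and 100% = buffer wells lacking importin beta; nearly all actives have a fitted effect of over 15% in size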
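FRET biosensor Rango (snurportin 1 IBB between N-terminal EYFP and C-terminal Cerulean), 50 nM in PBS/1 mM DTT/0.02% Tween-20/0.1% BSA, preincubated 5 min RT with compound; 0.125 microM importin beta added, 45 min RT, CFP/YFP FRET ratio read.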
* = called active by the depositor; u = inconclusive; x = no result given. Some of the compounds tested (hit frequency here may not be typical).

Rango dissoc inh	GLA inh pH 4.5	miR-21 FLuc	Rango complex inh	Molecule
3%	-8	-1%	1.3%	COc1ccc(CC(=O)Nc2c3c(nn2-c2cccc(C)c2C)CS(=O)C3)cc1 (stereo not given)
-15%	x	x	u	C=C1C(=O)OC2C1CCC(C)C1C=CC(=O)C12C (stereo not given)
11%	-11	7%	-1.2%	Cc1onc(-c2ccccc2Cl)c1C(=O)N1CCN(c2nc3ccccc3s2)CC1
-21%	1	3%	u	Cc1cc(C)cc(-n2c(C)cc(C=C(C#N)C#N)c2C)c1
11%	x	x	14%	Cc1cc(C)c(CN2CCN(C(=O)Cn3cnc4c(OCc5ccccc5)ncnc43)CC2)c(C)c1
2%	4	-20%	-4.4%	Cc1ccc(-n2c(C)cc(C(=O)CSc3n[nH]c(N)n3)c2C)cc1
7%	3	-22%	-2.2%	Cc1ccc(SCCC(=O)N2CCC(C(N)=O)CC2)cc1
-6%	9	1%	5.8%	CC(C)[C@H](NC(=O)c1ccco1)C(=O)OCC(=O)Nc1ccc(F)cc1
4%	-1	1%	0.0%	N#Cc1cccc(NC(=O)CN2NS(=O)(=O)c3ccccc3C2=O)c1
21%	2	12%	u	Cn1ncc2c(N3CCN(c4ccc(Cl)c(Cl)c4)CC3)ncnc21
-10%	-2	0%	-1.5%	Cc1cc2ccccc2n1CCNC(=O)c1ccc(S(=O)(=O)N2CCOCC2)cc1
5%	3	7%	0.0%	N#CC(c1ccccc1)c1ccc(C(=O)c2ccc(F)cc2)cc1 (stereo not given)
-3%	x	x	2.6%	CC(Oc1cccc(F)c1)C(=O)Nc1ccc(N2CCOCC2)cc1 (stereo not given)
2%	x	x	-2.2%	CCCCN1CC[C@H]2C=CC[C@@H](C(=O)Nc3nccs3)[C@H]2C1=O
-5%	10	-21%	-1.0%	CCOC(=O)C1(C)C=C(Nc2ccc(OCC)cc2)C(=O)N1c1ccccc1 (stereo not given)
0%	x	x	-3.0%	N#CC1(NC(=O)CSc2nnc(Nc3ccccc3F)s2)CCCC1
1%	-4	0%	2.8%	C=CCNC(=O)c1cc(Cl)ccc1Cl
u	x	10%	0.1%	Cc1nn(-c2ccccc2)c(C)c1NC(=O)COC(=O)c1ccc(O)cc1O
10%	-17	-4%	0.3%	CCOC(=O)c1cnc(-c2ccccc2)nc1N1CC(C)OC(C)C1 (stereo not given)
-3%	5	-5%	2.7%	CC(C)n1c(SCC(=O)N2c3ccccc3Sc3ccccc32)nc2c1c(=O)n(C)c(=O)n2C

5 records picked at random from those above:
Rango dissoc inh	GLA inh pH 4.5	miR-21 FLuc	Rango complex inh	Molecule
11%	x	x	14%	Cc1cc(C)c(CN2CCN(C(=O)Cn3cnc4c(OCc5ccccc5)ncnc43)CC2)c(C)c1
5%	3	7%	0.0%	N#CC(c1ccccc1)c1ccc(C(=O)c2ccc(F)cc2)cc1 (stereo not given)
4%	-1	1%	0.0%	N#Cc1cccc(NC(=O)CN2NS(=O)(=O)c3ccccc3C2=O)c1
11%	-11	7%	-1.2%	Cc1onc(-c2ccccc2Cl)c1C(=O)N1CCN(c2nc3ccccc3s2)CC1
1%	-4	0%	2.8%	C=CCNC(=O)c1cc(Cl)ccc1Cl

Complete entries, looked up by structure. Screens in order: Rango dissoc inh, GLA inh pH 4.5, miR-21 FLuc, Rango complex inh
Cc1cc(C)cc(-n2c(C)cc(C=C(C#N)C#N)c2C)c1 in the list: -21%, 1, 3%, u
Cc1onc(-c2ccccc2Cl)c1C(=O)N1CCN(c2nc3ccccc3s2)CC1 in the list: 11%, -11, 7%, -1.2%
Cc1cc(C)c(CN2CCN(C(=O)Cn3cnc4c(OCc5ccccc5)ncnc43)CC2)c(C)c1 in the list: 11%, x, x, 14%

(list continues)
Rango dissoc inh	GLA inh pH 4.5	miR-21 FLuc	Rango complex inh	Molecule
2%	-3	-12%	-0.3%	COc1ccc(C/C(C)=N/Nc2nc(C)cc(=O)[nH]2)cc1
1%	-1	2%	1.0%	CCc1ccc(NC(=O)CSc2nnc(SCC(=O)Nc3ccc(CC)cc3)n2N)cc1
6%	2	2%	8.8%	Cc1csc(NC(=O)c2cccc(S(=O)(=O)N3CCCCC3)c2)n1
3%	x	x	5.7%	C[C@@H]1CCCCCCCCC(=O)OCCN(C(=O)OC(C)(C)C)[C@H](C)CCCCCCCCC(=O)OCCN(C(=O)OC(C)(C)C)[C@H](C)CCCCCCCCC(=O)OCCN(C(=O)OC(C)(C)C)[C@H](C)CCCCCCCCC(=O)OCCN1C(=O)OC(C)(C)C
3%	x	0%	-0.2%	CC(C)CCn1c(COc2ccccc2)nn(CCC#N)c1=S
10%	4	-38%	0.0%	O=C(NCCCc1ccccc1)Nc1ccccc1
-6%	x	-9%	0.8%	CCN(Cc1ccccc1)Cc1ccc(OCc2ccccc2)cc1
-30%	5	0%	-0.9%	CN(C)Cc1n[nH]c(=O)c2ccccc12
5%	-4	-1%	-2.0%	Cc1ccc(OCCCCN(C)Cc2ccccc2)c(Br)c1
-8%	6	-7%	2.8%	Cc1cc(=O)[nH]c(SCC(=O)NNC(=O)Cc2ccccc2)n1
19%	x	1%	-3.4%	Fc1ccc(-n2c(-c3ccco3)n[nH]c2=S)cc1
0%	x	x	-4.8%	O=C(COC(=O)c1cc(Br)ccc1O)NNC(=O)c1cccs1
8%	1	-23%	-0.8%	COCc1nnc(NC(=O)CSc2ccccc2)s1
-12%	x	-4%	0.3%	COc1ccc(C(=O)N/C(=C\c2cn(S(=O)(=O)N(C)C)c3ccccc23)C(=O)NCCN2CCOCC2)cc1
7%	-5	3%	-4.3%	CCOC(=O)C1CCCN(c2c(NCCCN(C)c3ccccc3)c(=O)c2=O)C1 (stereo not given)
0%	x	-1%	-0.2%	FC(F)Sc1ccc(NC2=NCCCCC2)cc1
-20%	x	1%	u	Cc1cc(C)nc(SCC(=O)Nc2nccs2)n1
9%	x	-16%	-3.9%	NS(=O)(=O)c1cccc(NC(=O)CCC(=O)c2cccs2)c1
1%	x	x	-2.2%	Cn1c(N)c(C(=O)COC(=O)Cc2ccc(Cl)cc2)c(=O)n(C)c1=O
0%	x	x	2.4%	CCOC(=O)c1cc2c(c(-c3ccccc3)n1)[C@H](CCO)N(S(=O)(=O)C(C)(C)C)C2
17%	x	x	0.2%	CCOC(=O)N1CC(C)N(C(=S)Nc2ccccc2)CC1C (stereo not given)
3%	x	-6%	-1.5%	O=C(Cn1c2ccccc2c2nc3n(c(=O)c21)CCS3)N1CCCC1
20%	x	-1%	6.3%	O=C(CSc1nnc(CNC(=O)c2c(F)cccc2Cl)o1)NC1CCCC1
1%	x	-2%	-4.1%	CC1(C)NC(=O)N(CC(=O)N2CCC(Cc3ccccc3)CC2)C1=O
-8%	9	-15%	0.6%	Cc1ccc2nc(SCC(=O)Nc3ccc4c(c3)CCC4)[nH]c2c1
11%	-16	1%	-2.9%	O=C(NCCc1ccccc1)C1CCC(CNS(=O)(=O)c2cccs2)CC1 (stereo not given)
u	8	-6%	u	Cc1nc2ccccn2c1/C(O)=C1\C(=O)C(=O)N(CCN2CCOCC2)C1c1cccnc1 (stereo not given)
0%	2	-5%	0.0%	O=C(CSc1ccccn1)Nc1nncs1
-10%	5	-2%	7.1%	Fc1ccc(-c2nc3n(n2)Cc2ccccc2-3)cc1
-7%	9	-12%	0.1%	Cc1occc1C(=O)Nc1cccc([N+](=O)[O-])c1
8%	x	x	0.7%	CSc1ccccc1NC(=O)CN(C)C(=O)C(C)SCc1nc2sc(C)c(C)c2c(=O)[nH]1 (stereo not given)
-3%	4	6%	-2.8%	CCC(C(=O)N1CCN(c2ncccn2)CC1)c1ccccc1 (stereo not given)
-5%	0	-3%	0.2%	CN(C)c1nc(N)nc(CSc2nnnn2-c2ccc(C(=O)O)cc2)n1
8%	3	1%	-0.6%	COCCOc1ccc(C(F)(F)F)cc1NC(=O)c1ccc(C(F)(F)F)cc1
5%	-8	u	1.6%	CCc1cccc(CC)c1NC(=O)/C(C#N)=C/c1ccccc1C(F)(F)F
5%	3	-7%	1.7%	C[C@@H]1NC(=O)[C@H](CCC(=O)O)NC(=O)c2cc([N+](=O)[O-])cc(F)c2NCCC[C@@H](C(N)=O)NC1=O
-1%	x	-14%	3.1%	O=C(COc1ccc(Cl)cc1Cl)NNC(=O)c1cccnc1
10%	x	x	1.6%	Cc1ccccc1[C@@]1(C)ON(c2ccccc2C(F)(F)F)C1=O
-18%	3	4%	5.6%	Cc1nc2ccccc2nc1OCC(=O)N1CCN(c2ccccc2)CC1
27%	8	9%	-3.8%	CCOC(=O)C1C(C(=O)OCC)C1(c1ccccc1)c1ccccc1 (stereo not given)
-1%	0	-25%	-2.9%	Cc1ccc(C(=O)Nc2ccccc2C(=O)N2CCOCC2)cc1[N+](=O)[O-]
1%	3	0%	-1.4%	CCC(NC(=O)Nc1ncccc1C)(C(F)(F)F)C(F)(F)F
11%	-3	-34%	0.1%	Cc1cc(C(=O)COc2ccc([N+](=O)[O-])cc2)c(C)n1C1CC1
-13%	x	-2%	-0.1%	COc1ccccc1CNC(=O)[C@@H]1CCCN1C(=O)[C@@H]1Cc2ccccc2CN1C(=O)OC(C)(C)C
-21%	2	1%	-2.9%	CN(c1ccccc1)S(=O)(=O)c1ccc(C(=O)NCC2CCCO2)cc1 (stereo not given)
45%	-9	-1%	7.9%	COc1ccccc1N=Nc1nc(-c2ccccc2)c(-c2ccccc2)[nH]1
10%	3	-29%	-1.2%	C/C(=N\NC(=S)Nc1cccc(C)c1)c1cccc(N)c1
7%	6	5%	-0.6%	NC(=S)N/N=C/c1coc2ccc(Cl)cc2c1=O
6%	5	1%	1.6%	Cn1c(=O)oc2cc(S(=O)(=O)N3CCC(N4CCCCC4)CC3)ccc21
7%	x	x	3.3%	CCC(CC)C(=O)Oc1c(C(=O)N(C)C)cccc1-c1ccccc1
-14%	-13	-7%	-1.2%	CCc1nc2ccccc2n(CCOCCOCCn2c(=O)c(CC)nc3ccccc32)c1=O
-1%	22	15%	-3.5%	O=C(Cc1c[nH]c2ccccc12)N/N=C/c1ccccc1O
0%	0	9%	3.4%	O=C(Nc1ccccc1)N1CCN(c2nc(-c3ccccc3)ns2)CC1
2%	-10	0%	0.6%	CC(C)C(=O)Nc1nc2c(ncn2C2CC(O)C(CO)O2)c(=O)[nH]1 (stereo not given)
-4%	x	x	2.2%	COC(=O)[C@@]1(Cc2ccccc2)[C@H]2C(=O)N(Cc3ccccc3)C(=O)[C@H]2[C@H]2CN=C(SC)N21
-4%	1	-1%	0.9%	O=C(NNC(=O)c1cccnc1)Nc1cccc(Cl)c1Cl
1%	-10	-2%	0.0%	CC(C)c1ccc(/C=C2\C(=O)N(CCN3CCOCC3)C(=S)N2C)cc1
-12%	3	0%	2.3%	N#Cc1ccccc1S(=O)(=O)N1CCN(c2cnccn2)CC1
-19%	7	3%	0.5%	O=C(CCCNS(=O)(=O)c1cccs1)N1CCN(c2ccc(F)cc2)CC1
u	-1	u	u	CCCCn1c(NC(=O)c2ccccc2Cl)c(C#N)c2nc3ccccc3nc21

(cont.)
Rango dissoc inh	GLA inh pH 4.5	miR-21 FLuc	Rango complex inh	Molecule
12%	-6	-7%	1.3%	CN(CC(=O)Nc1cccc(C#N)c1)Cc1ccc(Cl)cc1
-19%	4	0%	-0.6%	CC(=O)c1cccc(N(C(=O)CNC(=O)c2ccco2)C(C(=O)NC2CCCC2)c2ccc(C)o2)c1 (stereo not given)
5%	0	-7%	2.4%	CC(C)=CC/C=C1\CCC(C(=O)O)C(C(=O)O)C1 (stereo not given)
1%	-4	-4%	0.0%	COc1ccccc1CC(=O)Nc1ccc([N+](=O)[O-])cc1OC
0%	-3	24%	-0.3%	O=C(N/N=C/c1cn(-c2ccccc2)nc1-c1cccs1)c1ccc(Cl)cc1
0%	x	x	-1.3%	Cc1cccc(NS(=O)(=O)c2ccc(C(=O)NCC3(N4CCCCC4)CCCCC3)cc2)c1C
11%	x	x	3.5%	COc1ccc(C(CNC(=O)c2ccc(-c3ccccc3Cl)o2)N2CCOCC2)cc1 (stereo not given)
4%	x	x	0.4%	O=C(Cc1ccc(Cl)cc1)OCC(=O)c1ccc[nH]1
u	5	-15%	u	CCOC(=O)c1ccc(-c2ccc(/C=C(\C#N)C(=O)NCc3cccs3)o2)cc1
-1%	-2	-3%	-3.4%	CCOCCSC1=C(C#N)C(c2cccs2)C(C(C)=O)=C(C)N1 (stereo not given)
